From PubChem BioAssay
gsp antagonist = antagonizes gsp, the McCune-Albright syndrome mutation; 340,000 compounds, 0.4% hits; Potency, µM (titrated, usually from 76.9 µM), for the others: at the highest dose activity change, negative = inhibition, actives largely listed as inhibitors; AID 624288; gsp-mutant cells, cAMP HTRF, 30 min; control for the full effect not named in the record; active = falling curve of any shape with a large fitted effect; inconclusive = falling curve, mostly with a smaller effect; inactive = flat or rising curve; cell line not stated here;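 note: intracellular cAMP measured with PDE inhibitor Ro 20-1724 present during compound exposure; potency is the fitted concentration of half-maximal effect; % is set by controls: 0 for no effect and ±100 for the full control effect; nearly all actives have a fitted effect of over 65% in size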
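Cells in G418 medium, seeded 16-24 h, 37C; buffer exchange to DPBS + 1 mM CaCl2, 0.5 mM MgCl2, 0.05% BSA; cpds in DMSO + […] (300 uM stock), 30 min 37C; HTRF cAMP detection.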
ClpP mod = qHTS Assay for Activators of ClpP | 340,000 compounds, 1.9% hits | Potency, µM (doses to about 57.5 µM), inactives show at the highest dose activity change, negative = active | purified B. subtilis ClpP, FRET peptide cleavage, 20 min; active = well fitted falling curve with a large enough effect; inconclusive = small, poorly fitted or top-dose-only effect; inactive = no such curve, though single readings can be large or run the other way; note: potency is the fitted concentration of half-maximal effect; the source files actives as falling curves though it sought activators and does not explain the sign; nearly all actives have a fitted effect of over 65% in size; many hits overshoot -100%
Target sequence (P80244 whole entry, looked up): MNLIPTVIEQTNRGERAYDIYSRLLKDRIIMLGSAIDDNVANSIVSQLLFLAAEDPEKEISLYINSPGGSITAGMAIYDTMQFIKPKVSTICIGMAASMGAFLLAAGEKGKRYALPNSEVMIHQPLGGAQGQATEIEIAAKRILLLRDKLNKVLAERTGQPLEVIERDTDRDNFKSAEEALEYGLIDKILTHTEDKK
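ClpP 10 microg/mL final, pH 8 Tris/KCl buffer with BSA, glycerol, Tween-20; compound pinned in; FRET-FV substrate; RT 20 min; Ex320/Em430; ΔFRET vs ADEP 5.8 microM, DMSO, no enzyme.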
TRPV1 potentiator = enhances activation of the human vanilloid receptor TRPV1; TRPV1-expressing cells, Fluo-8 calcium influx, capsaicin EC20 potentiation; host cell line not named in the record; control for the full effect not named in the record; potentiation, % at 8.33 µM; Q8NER1; 320,000 compounds, 0.02% hits; AID 540277; active means potentiation above 80%; inconclusive means 30% to 80%; inactive means below 30%; note: 0% is about no effect
Target sequence (Q8NER1 whole entry, looked up): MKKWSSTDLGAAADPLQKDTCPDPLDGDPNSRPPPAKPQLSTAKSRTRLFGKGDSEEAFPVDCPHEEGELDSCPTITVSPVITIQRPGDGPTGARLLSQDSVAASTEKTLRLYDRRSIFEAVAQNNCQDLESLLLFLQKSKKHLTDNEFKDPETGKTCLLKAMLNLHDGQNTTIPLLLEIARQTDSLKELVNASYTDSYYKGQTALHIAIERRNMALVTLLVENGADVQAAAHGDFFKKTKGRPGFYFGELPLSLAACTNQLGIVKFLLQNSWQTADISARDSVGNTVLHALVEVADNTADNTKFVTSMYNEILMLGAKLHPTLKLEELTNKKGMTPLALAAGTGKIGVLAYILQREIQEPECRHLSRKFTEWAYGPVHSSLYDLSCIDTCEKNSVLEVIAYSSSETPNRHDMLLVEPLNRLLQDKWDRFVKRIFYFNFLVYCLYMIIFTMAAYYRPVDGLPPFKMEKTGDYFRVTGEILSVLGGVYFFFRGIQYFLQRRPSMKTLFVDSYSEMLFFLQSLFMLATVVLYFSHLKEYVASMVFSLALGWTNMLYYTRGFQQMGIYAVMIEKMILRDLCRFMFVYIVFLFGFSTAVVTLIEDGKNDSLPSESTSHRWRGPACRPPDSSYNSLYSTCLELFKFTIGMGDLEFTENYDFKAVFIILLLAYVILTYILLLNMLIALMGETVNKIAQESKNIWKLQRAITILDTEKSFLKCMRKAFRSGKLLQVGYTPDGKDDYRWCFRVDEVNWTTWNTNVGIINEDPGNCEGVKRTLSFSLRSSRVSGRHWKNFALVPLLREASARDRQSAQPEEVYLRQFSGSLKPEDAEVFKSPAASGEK
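Cells expressing TRPV1 were dye-loaded with Fluo-8 and read kinetically: 10 s baseline, 3 min after compound (agonist portion), then 2 min after EC20 capsaicin (allosteric enhancer portion). Calcium-bound dye fluorescence at 480/520 nm.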
Menin-MLL FL inh = menin-MLL binding inhibition, fluorescein peptide | Fluorescence polarization, fluorescein-MLL peptide displacement from menin | FP activity change, % at 61.4 µM | 290,000 tested, under 10 active | AID 1766; inconclusive = falling polarisation curve, or a change in total fluorescence; inactive = total fluorescence flat and polarisation flat or rising; no compound was filed as active; the % refers to the polarisation; negative = inhibition;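 note: % of control where 0% means no effect; inhibitors lower the polarisation; unlabelled MLL peptide was the positive control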
D2 potentiator = positive allosteric modulators of human D2 dopamine receptor; P14416; DiscoveRx D2 beta-arrestin cells, luminescence, 90 min; 100% = 57 uM dopamine signal; potentiation, % (test concentration not listed); 360,000 compounds, 0.23% hits; active = potentiation of 50% or more; inconclusive = 30% to 50%; inactive = 30% or less;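 note: compound concentration not given in the record; tested on top of an EC20 dose of dopamine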
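D2 cells co-treated with compound plus 50 nM dopamine (EC20) for 90 min at 37 deg C to detect potentiation. Beta-arrestin recruitment was read as enzyme-fragment luminescence after 1 h at ambient temperature. Full response was set by 57 uM dopamine.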
gsp agonist = agonists of gsp mutant (McCune-Albright syndrome); gsp mutant cells, cAMP HTRF, 30 min; control for the full effect not named in the record; Potency, µM (series often up to 76.9 µM), for inactives: at the top dose activation (cAMP increase), hits mostly activators; 340,000 compounds, 0.13% hits; AID 624287; active = well fitted activation curve with a large enough effect; inconclusive = small, poorly fitted or top-dose-only effect, or another doubt; inactive = no such curve, though single readings can be large or run the other way; cell line not stated here;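 note: phosphodiesterase inhibitor Ro 20-1724 added with compounds to block cAMP breakdown; potency is the fitted concentration of half-maximal effect; nearly all actives have a fitted effect of over 60% in size; about a fifth of the inactives were tested at one dose only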
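Cells in DMEM/10% FBS with G418 were pretreated with compounds in DMSO plus […] (300 uM stock) for 30 min at 37C. cAMP was measured by HTRF (cAMP-d2 plus anti-cAMP antibody-K) after 30 min at room temperature.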
Sfp inh = Sfp phosphopantetheinyl transferase inhibition; Biochemical Sfp PPTase activity, qHTS; Potency, µM, without a hit: max response, negative = inhibition, most hits filed as inhibitors; 310,000 compounds, 3.5% hits; active = well fitted inhibition curve with a large enough effect; inconclusive = small, poorly fitted or top-dose-only effect, or another doubt; inactive = no such curve, though single readings can be large or run the other way;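 note: the enzyme is Sfp with the accession as filed and its product quenches rhodamine fluorescence; potency is the fitted concentration of half-maximal effect; 0% = enzyme reaction without inhibitor and -100% = no enzyme wells; top concentration of the series not given in the record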
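Step 1, compound plus 15 nM Sfp-PPTase, 15 min, room temperature. Step 2, add rhodamine-CoA (5 uM) and BHQ-2-YbbR (12.5 uM). Step 3, read 525/598 nm fluorescence at 0 and 30 min.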
* marks the source's active call; other numbers are inactive results; & = joins results of further samples; [ ] = dose if it differs, or a comment.

What do the screens show for `Cc1ccc([N+](=O)[O-])cc1S(=O)(=O)Nc1ccc(OCC(=O)N2CCOCC2)cc1`?
gsp antagonist: 3.0%; ClpP mod: 0.9%; TRPV1 potentiator: 3.6; D2 potentiator: 7.0; gsp agonist: -17.6%; Sfp inh: 13.6%

How did CC(C)CCNC(=O)CN(C(=O)CCC(=O)Nc1ccccn1)c1ccc2c(c1)OCO2 do in these assays?
gsp antagonist: 0.1%[15.4 µM]; ClpP mod: 1.3%; TRPV1 potentiator: -22.6; Menin-MLL FL inh: 3.7; D2 potentiator: -13.7; gsp agonist: -33.4%[inhibitor]; Sfp inh: -6.9%

Results for CC1CCCN(C(=O)C2CCN(S(=O)(=O)c3ccccc3)CC2)C1 (stereo not given) ?
gsp antagonist: 3.6%; ClpP mod: -0.2%; D2 potentiator: 0.6; gsp agonist: inconclusive

Results for Cc1c(C(=O)OCCOc2ccc(Br)cc2)sc(=S)n1C ?
gsp antagonist: -23.3%; ClpP mod: 1.7%; TRPV1 potentiator: 1.2; Menin-MLL FL inh: 0.4; D2 potentiator: -4.9; gsp agonist: -7.6%; Sfp inh: -2.4%

Results for COc1ccc2c(c1)OC[C@H]1[C@@H]2N2C(=O)[C@@H](C)NC(=O)[C@@]2(C)[C@H]1c1ccccc1 ?
gsp antagonist: -1.1%; ClpP mod: 0.1%; D2 potentiator: -9.3; gsp agonist: inconclusive

How did O=C(NCCN1CCOCC1)c1cn(-c2ccccc2)nc1-c1cccs1 do in these assays?
gsp antagonist: -13.7%; ClpP mod: -1.5%; TRPV1 potentiator: -4.8; Menin-MLL FL inh: 0.2; D2 potentiator: -11.2; gsp agonist: 3.7%; Sfp inh: 4.4%

How did CN(C)CCOc1ccc2c(c1)Sc1ccccc1CC2=O do in these assays?
gsp antagonist: 8.9%; ClpP mod: -4.0%; TRPV1 potentiator: inconclusive; Menin-MLL FL inh: 0.7; D2 potentiator: -35.4; gsp agonist: -13.9%; Sfp inh: -3.3%

Results for Cc1[nH]c2ccccc2c1C(=O)CN1CCCC(C)C1 (stereo not given) ?
gsp antagonist: 8.7%; ClpP mod: 0.9%; TRPV1 potentiator: -3.2; Menin-MLL FL inh: 0.9; D2 potentiator: -11.4; gsp agonist: -0.4%[15.4 µM]; Sfp inh: 0.3%

What do the screens show for `NC(N)=NC1=NC(=O)/C(=C/c2ccccc2-n2cccn2)S1`?
gsp antagonist: -3.7%; TRPV1 potentiator: -5.0; Menin-MLL FL inh: 0.0; D2 potentiator: 5.5; gsp agonist: -7.0%[15.4 µM]; Sfp inh: -6.8%

What do the screens show for `COc1cccc(NC(=O)OCCN2CCN(Cc3ccccc3)CCC2=O)c1`?
gsp antagonist: 1.7%; ClpP mod: 1.6%; TRPV1 potentiator: -1.8; Menin-MLL FL inh: -2.1&-1.2; D2 potentiator: -9.0; Sfp inh: 6.6%&0.5%

How did CCCc1cc(=O)[nH]c(SCC(=O)c2c(N)n(CC(C)C)c(=O)n(C)c2=O)n1 do in these assays?
gsp antagonist: -22.5%; ClpP mod: 1.7%; TRPV1 potentiator: 4.7; D2 potentiator: -13.6; gsp agonist: -10.2%

Results for Cc1ccc(OCC(=O)N2CCc3ccccc3C2)cc1C ?
ClpP mod: -2.0%; D2 potentiator: -7.8; gsp agonist: -1.8%

What do the screens show for `Cc1ccc(NC(=O)Cn2nnc(C(=O)NCc3cccs3)c2N)cc1`?
gsp antagonist: 4.7%; ClpP mod: 0.7%; TRPV1 potentiator: 22.5; Menin-MLL FL inh: -1.2; D2 potentiator: -4.5; gsp agonist: -8.1%; Sfp inh: -7.0%

What do the screens show for `Cc1ccc2cc(C)c(N3CCN(c4ccc(F)cc4)CC3)nc2c1`?
gsp antagonist: 11.7%; ClpP mod: inconclusive; TRPV1 potentiator: -3.1; Menin-MLL FL inh: -21.6; D2 potentiator: -0.1; gsp agonist: 24.0%; Sfp inh: -8.1%

How did C=CCNC(=O)Nc1ccc(Cl)cn1 do in these assays?
gsp antagonist: 8.7%; ClpP mod: -4.2%; TRPV1 potentiator: -6.0; Menin-MLL FL inh: -1.1; D2 potentiator: 2.2; gsp agonist: 10.9%; Sfp inh: 21.6%

What do the screens show for `O=C(COc1cccc2c1CCN(Cc1ccc(Cl)cc1)C2=O)N1CCOCC1`?
gsp antagonist: 2.5%; ClpP mod: 0.2%; TRPV1 potentiator: -21.7; Menin-MLL FL inh: -1.5; D2 potentiator: -1.8; gsp agonist: 16.6%; Sfp inh: 10.7%

Results for O=C(COC(=O)Cc1ccc(S(=O)(=O)N2CCCCC2)s1)Nc1ccc2c(c1)OCO2 ?
gsp antagonist: -17.9%; ClpP mod: 0.1%&-3.3%; TRPV1 potentiator: 1.8; Menin-MLL FL inh: 7.8; D2 potentiator: 14.4; gsp agonist: -15.0%; Sfp inh: 8.0%

What do the screens show for `CCc1ccc(CNCc2cccnc2)cc1`?
gsp antagonist: 3.6%; ClpP mod: -1.9%; TRPV1 potentiator: -38.2; Menin-MLL FL inh: -0.7; D2 potentiator: -19.6; gsp agonist: inconclusive; Sfp inh: inconclusive

How did CCc1ccc2[nH]c(=O)c(CN(Cc3ccco3)C(=S)NCC3CCCO3)cc2c1 (stereo not given) do in these assays?
gsp antagonist: -18.3%; TRPV1 potentiator: -15.0; Menin-MLL FL inh: 1.0; D2 potentiator: -5.2; gsp agonist: 0.0%[15.4 µM]; Sfp inh: -3.6%

What do the screens show for `O=C1Nc2ncccc2OC1CCO` (stereo not given)?
gsp antagonist: 16.8%; ClpP mod: -0.2%; TRPV1 potentiator: 11.7; Menin-MLL FL inh: 3.2; D2 potentiator: -1.9; gsp agonist: 0.7%; Sfp inh: 16.8%

What do the screens show for `CCOc1ccccc1N(C(=O)Cn1nnnc1-c1ccc(C)o1)C(CC)C(=O)NC(C)(C)C` (stereo not given)?
gsp antagonist: -17.1%; ClpP mod: 0.5%; TRPV1 potentiator: -19.6; Menin-MLL FL inh: 5.7; D2 potentiator: -7.0; gsp agonist: 11.4%; Sfp inh: inconclusive

What do the screens show for `CS(=O)(=O)Nc1ccc(C(=O)CSc2nnc(C3CC3)n2C2CC2)cc1`?
gsp antagonist: 1.1%; ClpP mod: -3.3%; TRPV1 potentiator: 2.2; D2 potentiator: 5.0; gsp agonist: inconclusive

How did O=C(O)c1cc(NC(=O)c2ccc3c(c2)C(=O)N(Cc2cccnc2)C3=O)cc(C(=O)O)c1 do in these assays?
gsp antagonist: 12.1%; ClpP mod: 0.9%; TRPV1 potentiator: -3.7; Menin-MLL FL inh: 1.8; D2 potentiator: 3.0; gsp agonist: -0.1%; Sfp inh: -1.9%

What do the screens show for `COc1ccc(CNC(=O)CN(C(=O)c2csnn2)c2cccc(C(C)=O)c2)cc1`?
gsp antagonist: 10.2%; TRPV1 potentiator: -22.3; Menin-MLL FL inh: 0.4; D2 potentiator: -5.0; gsp agonist: 21.1%; Sfp inh: 13.1%

Results for CC(CCC(=O)O)C1CC[C@H]2C3CCC4CC(=O)CCC4(C)[C@H]3CC(=O)C12C (stereo not given in full) ?
gsp antagonist: -16.6%; ClpP mod: -3.1%; TRPV1 potentiator: 10.7; Menin-MLL FL inh: 3.5; D2 potentiator: -3.7; gsp agonist: 3.1%; Sfp inh: 3.0%

Results for CC(C)(C)OC(=O)C[C@@H]1C/C=C\C[C@H](CC(=O)N[C@H](CO)Cc2ccccc2)C(=O)N2CCC[C@H]2COC1=O ?
gsp antagonist: 8.1%; ClpP mod: 0.4%; D2 potentiator: -2.3

Results for CCOc1cc(/C=C2/C(=O)ON=C2C)ccc1OCc1ccccc1F ?
gsp antagonist: 26.8%; ClpP mod: 6.0%; TRPV1 potentiator: -17.2; Menin-MLL FL inh: 3.7; D2 potentiator: -11.4; gsp agonist: 41.4%; Sfp inh: 20µM*

What do the screens show for `CCCCOc1ccccc1C1C(C(N)=O)=C(C)Nc2nnnn21` (stereo not given)?
gsp antagonist: 8.5%; ClpP mod: 0.9%; TRPV1 potentiator: -1.2; Menin-MLL FL inh: -1.0; D2 potentiator: -6.8; gsp agonist: -46.6%[inhibitor]; Sfp inh: 2.7%

How did Cc1nnc2n(-c3ccccc3)c(=O)c3c4c(sc3n12)CCCC4 do in these assays?
gsp antagonist: -8.8%; ClpP mod: -1.8%; TRPV1 potentiator: 1.9; Menin-MLL FL inh: 7.2; D2 potentiator: -4.6; gsp agonist: inconclusive; Sfp inh: 0.8%

Results for CCCCNC(=O)N(C)c1nncnc1C(=O)NC ?
gsp antagonist: 5.1%; ClpP mod: -3.9%; TRPV1 potentiator: 4.3; Menin-MLL FL inh: 2.1; D2 potentiator: -9.0; gsp agonist: 4.1%; Sfp inh: 15.4%

How did Cc1cccc(NC(=O)c2ccc([N+](=O)[O-])o2)c1 do in these assays?
gsp antagonist: -8.2%; TRPV1 potentiator: -8.4; Menin-MLL FL inh: 5.3; D2 potentiator: 20.7; gsp agonist: -5.2%[15.4 µM]; Sfp inh: 15.9%

What do the screens show for `Fc1ccc(CSc2ncnc3c2oc2ccccc23)cc1`?
gsp antagonist: 3.4%; ClpP mod: -22.6%; TRPV1 potentiator: 28.2; Menin-MLL FL inh: 1.8; D2 potentiator: 0.0; gsp agonist: -3.4%; Sfp inh: -2.1%

What do the screens show for `COc1ccc(C)cc1NC(=O)CCS(=O)(=O)c1cccc2nonc12`?
gsp antagonist: 3.8%; ClpP mod: -1.4%; TRPV1 potentiator: 0.7; Menin-MLL FL inh: 0.3; D2 potentiator: -12.5; gsp agonist: -1.3%; Sfp inh: 18.8%

How did Cc1cc(C)c2sc(N(CCCN(C)C)C(=O)c3ccc(S(=O)(=O)N(C)C4CCCCC4)cc3)nc2c1 do in these assays?
gsp antagonist: 11.1%; ClpP mod: -0.2%; TRPV1 potentiator: -10.4; D2 potentiator: -37.9; gsp agonist: -2.1%[15.4 µM]

What do the screens show for `O=C(NCCc1ccccc1)c1ccco1`?
gsp antagonist: -0.3%; ClpP mod: -0.1%; TRPV1 potentiator: -20.6; Menin-MLL FL inh: -1.2; D2 potentiator: -22.3; gsp agonist: 24.7%; Sfp inh: 0.9%

How did Cc1ccc(SCC(=O)OCC(=O)NC(C)c2ccc(F)cc2)cc1 (stereo not given) do in these assays?
gsp antagonist: 5.7%; ClpP mod: -2.3%; TRPV1 potentiator: 0.5; D2 potentiator: -5.9; gsp agonist: -10.5%
